# PK Bst = Pyruvate Kinase | Potency, µM | hit rate 1.2% among 51,000 | partly purified Bacillus stearothermophilus pyruvate kinase, luminescence ATP production; ribose 5-phosphate activator present at AC10; in the data active means potency below about 11 µM; inconclusive means mostly about 12 µM to 25 µM; inactive means weaker than that;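 the screen sought inhibitors and activators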;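 note: potency is the fitted concentration of half-maximal effect; scaled between full activation by ribose 5 phosphate and full inhibition by luteolin; about four in five hits inhibit and the cells do not say which; series up to 57 µM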
# TsaE inh = qHTS Assay for Inhibitors of YjeE | tRNA threonylcarbamoyladenosine biosynthesis protein TsaE (Escherichia coli (strain … | purified YjeE, fluorescence polarisation of a bound ADP probe | Potency, µM | hit rate 0.05% among 71,000; active = well fitted falling curve; inconclusive = weaker or top-dose-only fall, or a rising curve; inactive = flat or poorly fitted curve;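 note: top concentration of the series not given in the record; excess ADP was the control for the full effect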
#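 Purified YjeE (10 uM) with BODIPY Texas Red-labeled ADP probe (2 uM); compounds pin-transferred, 15 min at room temperature. Binding inhibition read as decreased fluorescence polarization; ADP titration as control.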
# Active calls of the source: *; i = inactive; / = not tested or not shown.
structure | PK Bst | TsaE inh
CC(C)CCNC(=O)c1cnn2c(C(F)(F)F)cc(-c3ccco3)nc12 | >57 | i
CC(=O)c1c(C)[nH]c(C(=O)N2CCCCCC2)c1C | >57 | i
O=C(c1ccc2c(c1)OCCCO2)c1cccs1 | / | i
Cn1cccc1C(=O)N1CCC2(CCN(Cc3ccncc3)CC2)CC1 | / | i
O=C(NCc1ccco1)Nc1ccc2snnc2c1 | / | i
CSc1nc(C)c2c(n1)OC(CN1C(=O)c3ccccc3C1=O)C2 (centres undefined) | / | i
COC(=O)C1=C(C)N(CCc2ccc(OC)cc2)C(=O)C1 | / | i
O=C1c2ccccc2C(=O)N1CCc1nc(-c2cccnc2)no1 | >57 | i
CN1CCN(C(=O)c2sc(=S)n(-c3ccccc3)c2N)CC1 | >57 | i
CCOc1ccc(CCNC(=O)C2CCN(C(=O)N(C)C)CC2)cc1OCC | >57 | i
CCOC(=O)c1c(N)sc2c(OC)c(Br)ccc12 | / | i
O=C(c1cccc(F)c1)N1CCC[C@@]2(CCN(c3ncccn3)C2)C1 | / | i
Cc1nn(C)c(C)c1S(=O)(=O)N(CC(=O)NCCCOC(C)C)c1ccc(C(C)C)cc1 | >57 | i
COc1ccccc1-c1ccc(=O)n(CC(=O)NC(C)(C)C)n1 | >57 | i
CC(C)(C[C@@]1(C)NC(=O)NC1=O)OCc1ccccc1 | / | i
CCOc1ccc(C(=O)CCN2CCCCCC2)cc1 | >57 | i
CCOC(=O)c1c(N)ssc1=S | / | i
CC(C)N(Cc1nc(-c2ccc(Cl)cc2)no1)C(=O)c1cccs1 | >57 | i
O=C1C2C3C=CC([C@@H]2C(=O)N1c1nccs1)C31CC1 (some centres undefined) | >57 | i
CC(C)(CO)Cc1cc(C(C)(C)C)c(O)c(C(C)(C)C)c1 | / | i
C=CCn1c(COc2ccc(F)cc2)nnc1SCC(=O)NC(=O)NCc1ccco1 | >57 | i
Cc1ccc(S(=O)(=O)NCc2ccco2)cc1C | / | i
O=C(COc1ccc(Cl)cc1)Nc1nnc(-c2ccc3c(c2)CCCC3)o1 | / | i
N#Cc1c(NC(=O)CSc2nnnn2C2CCCCC2)sc2c1CCCC2 | >57 | i
Cc1ccc(CNC(=O)c2cc3c(-c4ccc(Cl)cc4)nn(C)c3s2)o1 | / | i
O=C1CCCc2nc(NCc3ccco3)ncc21 | >57 | i
O=C(Nc1cccc(-c2cn3ccsc3n2)c1)c1ccccc1 | i | i
COc1ccccc1-n1cnc(N)c1C(C)=O | >57 | i
CC(C)(C)OC(=O)N1CCCC1C(=O)O (centres undefined) | >57 | i
CCn1c(=O)c(C(C)=O)nc2ccccc21 | >57 | i
O=S(=O)(c1cccs1)N1CCCc2ccccc21 | / | i
O=S(=O)(O)c1ccc(NN(c2c(O)ccc3ccccc23)S(=O)(=O)O)cc1 | / | i
CCC(=O)c1cc2c(cc1NC(=O)c1cccs1)OCCO2 | / | i
COc1ccccc1Cc1noc(COc2cccc(C)c2C)n1 | >57 | i
O=C(NC1CCCCC1)c1cccc(S(=O)(=O)N2CCOCC2)c1 | / | i
COC(=O)c1ccc(CSc2nc3c(c(=O)n2-c2ccc(Br)cc2)SCC3)o1 | >57 | i
CC(=O)c1ccc(NC(=O)CN2C(=O)COc3ccc(Cl)cc32)cc1 | / | i
Cc1ccc(N2CC(C(=O)Nc3ccc(N(C)C)cc3)CC2=O)cc1C (centres undefined) | >25.6 | /
Cc1c(C)n(CC(O)CN2CCCCCC2)c2ccccc12 (centres undefined) | / | i
COCc1[nH]nc2c1C(c1ccsc1)C(C#N)=C(N)O2 (centres undefined) | >57 | i
Oc1ccc(Br)cc1CNn1cnnc1 | >25.6 | /
Cc1c(NC(=O)Nc2ccc(Cl)cc2)c(=O)n(-c2ccccc2)n1C | / | i
CCOc1ccc(-c2n[nH]c(C)c2Oc2ccc(OC)cc2)c(O)c1 | >57 | i
Cc1ccc(SCc2[nH]nc3c2C(c2ccco2)C(C#N)=C(N)O3)cc1 (centres undefined) | >57 | i
COC(=O)C1=C(C)N(C)C(C)=C(C(=O)OC)C1c1ccccn1 | / | i
CCCCCCCCCCC/C=C\C(C)(C)/C=C\CCCC(=O)O | / | i
CN1CCN(c2nc3c(c(=O)[nH]c(=O)n3C)n2CCSc2ncccn2)CC1 | >57 | i
COCCNC(=O)CN1C(=O)CSc2cc(S(=O)(=O)N3CCCCCC3)ccc21 | / | i
CC(C)(C)C(=O)NC1CCN(S(=O)(=O)c2cccc(C(F)(F)F)c2)CC1 | >57 | i
CCOCc1nnc(NC(=O)CSCc2ccccc2)s1 | >57 | i
COC(=O)c1c(NC(=O)CSc2nnnn2C)sc(C)c1C | >57 | i
O=C(O)CCCNS(=O)(=O)c1ccc(Br)s1 | >57 | i
O=C(NCc1ccco1)N1c2ccccc2Sc2ccccc21 | / | i
COc1ccccc1-c1nc(-c2ccncc2)no1 | i | i
COc1ccc(C)cc1S(=O)(=O)NC1CCCC1 | >57 | i
Cn1cnc2c1c(=O)[nH]c(=O)n2C | >11.4 | i
CCCCOC(=O)CSC1=C(C#N)C(c2ccccc2OCC)C(C#N)C(=O)N1 (centres undefined) | >57 | i
CCOc1ccc(NC(=O)Nc2cc(C)on2)cc1 | / | i
CCc1cc(C(=O)Cc2nc3ccccc3[nH]2)c(O)cc1O | >57 | i
Nc1nc(Nc2ccccc2Br)nc(C(F)(F)F)n1 | / | i

# Given with values under each structure: 6 of the compounds above.
# Values run as follows: PK Bst | TsaE inh
COc1ccc(C)cc1S(=O)(=O)NC1CCCC1
 : >57 | i
Cn1cnc2c1c(=O)[nH]c(=O)n2C
 : >11.4 | i
CCCCOC(=O)CSC1=C(C#N)C(c2ccccc2OCC)C(C#N)C(=O)N1 (centres undefined)
 : >57 | i
CCOc1ccc(NC(=O)Nc2cc(C)on2)cc1
 : / | i
CCc1cc(C(=O)Cc2nc3ccccc3[nH]2)c(O)cc1O
 : >57 | i
Nc1nc(Nc2ccccc2Br)nc(C(F)(F)F)n1
 : / | i

# (further entries)
structure | PK Bst | TsaE inh
Clc1ccccc1-c1cncnc1NCc1cccs1 | / | i
COc1ccc(CNS(=O)(=O)c2ccc3oc(C(=O)O)c(C)c3c2)cc1 | >57 | i
COC(=O)c1ccccc1COn1c(=O)c[n+]([O-])c2ccccc21 | >57 | i
COc1ccc2c(c1)Cc1sc(NC(=O)c3cccs3)nc1-2 | / | i
CNc1ncnc2ccc(-c3cccc(OC)c3)cc12 | / | i
O=C(c1cccc(Cl)c1)N1CCN(Cc2ccncc2)CC1 | >57 | i
CC12CC[C@@H]3c4ccc(OS(=O)(=O)O)cc4CC[C@H]3C1CCC2=O (some centres undefined) | / | i
COc1ccc(NS(=O)(=O)c2ccc(SC)cc2)cc1 | >57 | i
CNC(=O)C1(CC(C)C)C=CCN1C(C)=O (centres undefined) | / | i
O=C(NCC(=O)N(c1ccccc1)C(C(=O)NC1CCCCC1)c1ccncc1)c1ccco1 (centres undefined) | >57 | i
COC(=O)c1ccc2c(c1)SC1=C(CCCC1=O)N2 | >57 | i
CCOCC(=O)Nc1nc2ccc(OC)cc2s1 | / | i
O=C(NCCN1CCN(c2ccccc2)CC1)c1cccc(Br)c1 | >57 | i
COc1ccc2c(c1)c1nnc(SCC(=O)N3CCCCC3C)nc1n2C (centres undefined) | >57 | i
COc1ccc(-n2nc3cc(C)c(NC(=O)CC(C)C)cc3n2)cc1 | / | i
CCN(CCCNC(=O)CCn1c(=O)[nH]c2ccccc2c1=O)c1cccc(C)c1 | >57 | i
O=C(CCCOc1ccccc1)Nc1ccc2c(c1)OCCO2 | / | i
Cn1cnnc1SCc1ccc(C(=O)n2ncc(C#N)c2N)cc1 | >57 | i
Cc1ccc(S(=O)(=O)N(CCC#N)CCN2CCCC2)cc1 | / | i
O=C(NCC1CCCCC1)C1CCN(C(=O)NC2CCCCC2)CC1 | >57 | i
O=S1(=O)CC(O)C(NCc2cccnc2)C1 (centres undefined) | >57 | i
COc1ccc(C(=O)n2nc(C)cc2C)cc1Br | / | i
CC1Oc2ccccc2N(CC(=O)N2CCc3ccccc32)C1=O (centres undefined) | >57 | i
O=C(CN1CCOCC1)Nc1c(-c2ccccc2)c2cc(Br)ccc2[nH]c1=O | / | i
O=c1c(-c2cc(F)cc(F)c2)nc2cnc(N3CCOCC3)nc2n1CCc1ccccc1 | / | i
N=c1ccn(Cc2ccc(Cl)c(Cl)c2)cc1 | >57 | i
CCNC(=O)N1C(=O)C2(OCCO2)c2cc(Br)ccc21 | >57 | i
COC(=O)C1CCN(C(=O)c2ccc(SC)cc2OC)CC1 | >57 | i
Cc1cc(Nc2ccccc2)nn1C(=O)c1ccccc1 | / | i
O=C(O)c1ccc(COCC(F)(F)C(F)F)o1 | >25.6 | /
COc1ccccc1NC(=O)CN1CCC(n2nnc3cc(F)ccc32)CC1 | >57 | i
C1CCC(CNc2c3c(nc4nnnn24)CCCC3)CC1 | >57 | i
COc1ccc(Nc2ccc3c(c2)=NC2(CCCCC2)[N+]=3[O-])cc1 | / | i
CCCC1(C(=O)OCC)NC(c2cc(OC)c(OC)c(OC)c2)C2C(=O)N(CC)C(=O)C21 (centres undefined) | >57 | i
O=c1[nH]c(=O)n(Cc2ccco2)c2c1C(C(F)(F)F)(C(F)(F)F)N=C(C1CCCCC1)N2 | >57 | i
CCCn1c(SCc2cc(=O)[nH]c3ccccc23)nc2c1c(=O)n(C)c(=O)n2C | >57 | i
CC(C)(C)C(=O)Nc1ccc(-c2cn3ccsc3n2)cc1 | 1.57* | i
Cc1ccc(S(=O)(=O)N2CCC(C(=O)N3CCC[C@H]3C(=O)NC3CCS(=O)(=O)C3)CC2)cc1 (some centres undefined) | >57 | i
CCOC(=O)c1cnc2cc3c(cn2c1=O)CCCC3 | / | i
Cc1nc(-n2nnc3ccccc32)c2c3c(sc2n1)CCCC3 | >57 | i
Cc1nc(N)c(C#N)c(-c2ccccc2)c1C | >57 | i
O=C(NCSC1=NCCS1)c1ccccc1 | >57 | i
Cc1cc(C)n(-c2ccc(C(=O)OCC(=O)c3ccc(Br)s3)cc2)n1 | >57 | i
CC[C@]1(O)C[C@@H]2CN(CCc3c([nH]c4ccccc34)[C@](C(=O)OC)(c3cc4c(cc3OC)N(C=O)[C@H]3[C@@](O)(C(=O)OC)[C@H](C(=O)OC)[C@@]5(CC)C=CCN6CC[C@]43[C@H]65)C2)C1 | / | i
O=C(NCCCN1CCN(c2cccc(Cl)c2)CC1)c1ccc(N2CCCC2=O)cc1 | >57 | i
Cc1cc2cc(CNC(=O)CCC(=O)O)ccc2[nH]1 | >57 | i
CN(C)CC(=O)Nc1cc(C(F)(F)F)ccc1Cl | >57 | i
COc1ccc(O)c(C(=O)CC(=O)c2ccccc2)c1 | / | i
N#Cc1nc(Cc2cccc3ccccc23)oc1NCc1ccco1 | i | i
O=C(CC1Oc2ccccc2NC1=O)NCc1ccccc1 (centres undefined) | / | i
CC(=O)O[C@@H](C)C[N+](C)(C)C | / | i
COC(=O)c1ccc(NC(=O)CN2CCN(c3ccccc3)CC2)cc1 | >57 | i
Cc1oc(-c2cccc(Cl)c2)nc1CN1CCC(C(=O)NCC2CCCO2)CC1 (centres undefined) | >57 | i
O=C(CSc1n[nH]c(C2CCCC2)n1)NC1CCCC1 | >57 | i
CC1(C)Cc2c(sc3ncnc(N)c23)CO1 | >57 | i
Cc1ccc(-c2ccc(=O)n(CC(=O)NCCCN3CCCCC3C)n2)cc1 (centres undefined) | >57 | i
CCOc1ccccc1C(=O)N1CCCCC1C (centres undefined) | >57 | i
CCN(c1ccc(OC)cc1)S(=O)(=O)c1ccc2c(c1)CCN2C(=O)CCC(=O)O | >57 | i
CCCc1nc(SCC(=O)N2CCc3ccccc32)c2c(=O)n(C)c(=O)n(C)c2n1 | / | i
CCC1CC(C)(C(=O)Nc2ccc(S(N)(=O)=O)cc2)OC1=O (centres undefined) | / | i

# (continued)
structure | PK Bst | TsaE inh
Cc1ccc(C)c(/C(O)=C2/C(=O)C(=O)N(CCN3CCOCC3)C2c2ccc(C)o2)c1 (centres undefined) | >57 | i
CCOC(=O)C1CCCN(S(=O)(=O)c2c(C)c(C)cc(C)c2C)C1 (centres undefined) | / | i
COC(=O)C1CCN(C(=O)C23CCC(C)(C(=O)O2)C3(C)C)CC1 (centres undefined) | >57 | i
COc1ccccc1NC(=O)Cc1csc(N)n1 | >57 | i
CC(=O)Nc1ccc(Oc2cc(C#N)c(C#N)cc2N2CCCCCC2)cc1 | >57 | i
O=C(O)c1c(Br)c(Br)c(Br)c(Br)c1C1c2ccc(O)cc2Oc2cc(O)ccc21 | / | i
CN(C)Cc1cn(CCC(=O)O)c2ccccc12 | >57 | i
O=S(=O)(NC1CCCC1)c1ccc(S(=O)(=O)N2CCc3ccccc32)cc1 | >57 | i
CCOC(=O)C1CCN(C(=O)c2cccc(NC(=O)C(CC)CC)c2)CC1 | >57 | i
CC1CCN(Cc2nc3c(c(=O)n(C)c(=O)n3C)n2CCCc2ccccc2)CC1 | >57 | i
Cc1nc(C)c(C(=O)NCc2ccc(Cl)cc2)o1 | >57 | i
COCC(=O)Nc1c(C(=O)Nc2cccc(OC)c2)oc2ccccc12 | / | i
COc1ccc(CCn2c(-n3nc(C)cc3C)nc3c2c(=O)[nH]c(=O)n3C)cc1 | >57 | i
CCOc1ccc(-n2c(C)nc3cc(C(=O)NCCCN4CCOCC4)ccc32)cc1 | >57 | i

# Compound activity (PubChem)

# This is a subset. The share of hits here may be higher or lower than overall.
